miR-21 reporter – raises the signal of a miR-21 reporter; HeLa miR-21 FLuc reporter, luciferase, 48 h; Potency, µM (highest dose often 38.3 µM), without a hit: at the top dose reporter change, positive = more light; 340,000 tested, under 10 active; active = well fitted rising curve with a large enough effect; inconclusive = small, poorly fitted or top-dose-only effect; inactive = no such curve, though single readings can be large or run the other way;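 note: % of control where 0% means no effect; miR-21 action dims this reporter so a rising signal means less miR-21 action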
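Compounds were titrated across several concentrations (up to approximately 40 uM) and incubated 48 hours with HeLa miR-21-FLuc reporter cells (miR-21 target sequence downstream of FLuc, endogenous miR-21). Readout was firefly luciferase luminescence after lytic detection reagent.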
Rango release inh – inhibitors of RanGTP-induced Rango-importin beta complex dissociation. Biochemical FRET Rango-importin beta, RanGTP-induced dissociation. Potency, µM (top dose mostly 46.1 µM), for the others: at the top dose activity change, negative = inhibition. 340,000 compounds, 0.071% hits; active means falling FRET ratio curve, often poorly fitted, with flat reads before Ran was added; inconclusive means other falling curves, or compound fluorescence or quenching; inactive means flat or rising ratio curve;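 note: potency is the fitted concentration of half-maximal effect; % of control where 0% means no effect; nearly all actives have a fitted effect of over 45% in size; -100% = wells without RanGTP and RCC1; the record marks most hits as doubtful in a second field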
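Quantitative HTS using a FRET biosensor: 0.1 uM Rango, 0.25 uM importin beta, 0.6 uM Ran, 2 mM GTP, 0.2 uM RCC1 final, PBS with DTT, Tween-20 and BSA. Post-read taken 45 min after Ran addition.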
Rango-impB inh – inhibitors of Rango-importin beta complex formation; Q14974; Rango CFP/YFP FRET sensor + importin beta, 45 min; Potency, µM (series often up to 92.2 µM), for inactives: at the top dose inhibition of complex formation; 340,000 compounds, 0.031% hits; active = rising FRET ratio curve, often small or poorly fitted; inconclusive = mostly compound fluorescence or quenching in the first reads; inactive = flat curves in all reads;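 note: potency is the fitted concentration of half-maximal effect; 0% = DMSO wells and 100% = buffer wells lacking importin beta; nearly all actives have a fitted effect of over 15% in size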
Target sequence (Q14974 whole entry, looked up): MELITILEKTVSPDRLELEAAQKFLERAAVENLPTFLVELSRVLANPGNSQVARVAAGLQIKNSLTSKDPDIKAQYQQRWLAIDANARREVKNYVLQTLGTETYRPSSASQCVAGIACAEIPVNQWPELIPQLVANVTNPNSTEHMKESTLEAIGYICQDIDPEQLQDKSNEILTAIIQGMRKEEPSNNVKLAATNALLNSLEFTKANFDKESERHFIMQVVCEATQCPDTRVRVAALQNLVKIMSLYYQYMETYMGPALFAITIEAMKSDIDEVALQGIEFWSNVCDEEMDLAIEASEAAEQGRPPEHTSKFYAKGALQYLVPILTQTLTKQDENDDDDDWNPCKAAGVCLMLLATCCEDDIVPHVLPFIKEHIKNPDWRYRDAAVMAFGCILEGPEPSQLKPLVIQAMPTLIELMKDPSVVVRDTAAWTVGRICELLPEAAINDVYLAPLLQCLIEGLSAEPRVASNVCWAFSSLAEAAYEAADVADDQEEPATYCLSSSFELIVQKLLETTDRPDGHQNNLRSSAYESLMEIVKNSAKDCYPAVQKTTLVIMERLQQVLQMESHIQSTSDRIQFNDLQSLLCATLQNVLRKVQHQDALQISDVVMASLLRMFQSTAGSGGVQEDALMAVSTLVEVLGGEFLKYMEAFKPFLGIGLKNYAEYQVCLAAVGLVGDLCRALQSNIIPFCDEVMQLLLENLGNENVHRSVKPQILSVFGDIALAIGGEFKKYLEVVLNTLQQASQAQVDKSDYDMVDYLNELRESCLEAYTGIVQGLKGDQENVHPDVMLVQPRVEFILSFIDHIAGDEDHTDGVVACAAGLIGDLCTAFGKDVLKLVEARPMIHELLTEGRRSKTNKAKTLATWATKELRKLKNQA
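Inhibition scored from the CFP 486 nm/YFP 530 nm FRET ratio 45 min after adding 0.125 microM importin beta to 50 nM Rango biosensor preincubated 5 min with compound (room temperature, PBS with DTT, Tween-20, BSA). No-importin wells as positive control.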
GLA inh pH 4.5 – blocks human alpha-galactosidase A at pH 4.5 | purified enzyme, 4-MU-alpha-Gal fluorescence, pH 4.5 | 230,000 tested, under 10 active | activity change, negative = inhibition, % at 105 µM | P06280 | AID 1467; inconclusive = small, poorly fitted or top-dose-only inhibition, or a rising curve; inactive = flat fitted curve, though single readings scatter; no compound was filed as active;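 note: 0% = full activity with enzyme and -100% = basal without enzyme; dose as in the result columns while the protocol names 77 µM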
Numbers without * were called inactive; & = joins results of further samples; [ ] = another dose, or the depositor's remark. The list is partial; count on the stated rates, not on these rows.

Cc1ccc(-n2sc3ccccc3c2=O)cc1 was read as miR-21 reporter 26.2%, Rango release inh 5.1%, Rango-impB inh 0.3% and GLA inh pH 4.5 3.4.
Screening Cc1ccc(Nc2ccc(C(F)(F)F)cc2[N+](=O)[O-])cc1 returned miR-21 reporter -5.4%, Rango release inh -7.6%, Rango-impB inh 3.6% and GLA inh pH 4.5 -4.7.
`COCCN(C(=O)CSc1nc2ccc(Cl)cc2[nH]1)c1c(N)n(Cc2ccccc2)c(=O)[nH]c1=O` gave miR-21 reporter 0.0%, Rango release inh -8.0% and Rango-impB inh 0.1%.
`COc1cccc(OCCCCSc2ncccn2)c1` gave miR-21 reporter -25.9%, Rango release inh -19.6%, Rango-impB inh 3.7% and GLA inh pH 4.5 0.2.
`Cc1c(S(=O)(=O)N2CCN(c3ccccc3)CC2)c(=O)n(C)c(=O)n1C` gave miR-21 reporter 1.0%, Rango release inh -8.7%, Rango-impB inh 0.3% and GLA inh pH 4.5 11.8.
For CC(=O)N1CC(c2ccccc2)C(c2ccc(Cl)cc2)=N1 (configuration not stated) the results were miR-21 reporter -6.9%, Rango release inh -8.9%, Rango-impB inh -3.2% and GLA inh pH 4.5 -2.2.
Screening Cc1onc(-c2ccc3c(c2)OCO3)c1-c1ccc2[nH]ccc2c1 returned miR-21 reporter 7.7%, Rango release inh -11.7% and Rango-impB inh 2.8%.
`O=C(c1ccc(F)cc1)C1CCN(S(=O)(=O)c2ccccc2)CC1` gave miR-21 reporter -0.5%, Rango release inh 3.1%, Rango-impB inh 0.1% and GLA inh pH 4.5 -7.1.
`CCCNC(=O)N(CCOC)CC1CCCN(C2Cc3ccccc3C2)C1` (configuration not stated) gave miR-21 reporter -3.5%, Rango release inh 4.9% and Rango-impB inh 4.6%.
For Oc1ccc(Nc2nc(NCC3CCCO3)c3ccccc3n2)cc1 (configuration not stated) the results were miR-21 reporter 14.2%, Rango release inh -2.1%, Rango-impB inh 0.6% and GLA inh pH 4.5 -1.6.
Cc1cc(CNC(=O)c2ccc3nc(Cc4ccccc4F)oc3c2)nn1C was read as miR-21 reporter -53.9%, Rango release inh -4.0% and Rango-impB inh -0.3%.
`O=C(Nc1ccc2c(c1)OCCO2)C1CCN(C(=O)c2ccc(Cl)cc2)CC1` gave miR-21 reporter -32.6%, Rango release inh 6.5%, Rango-impB inh 4.5% and GLA inh pH 4.5 -6.2.
For Cn1c(=O)n(C)c2cc(NS(=O)(=O)c3ccc(F)cc3)ccc21 the results were miR-21 reporter -0.3%&0.1%, Rango release inh -3.3%, Rango-impB inh 3.3% and GLA inh pH 4.5 -1.0.
`COC(=O)c1ccc(COc2ccc(/C=N/O)cc2OC)o1` gave miR-21 reporter -13.3%, Rango release inh 5.2%, Rango-impB inh 0.3% and GLA inh pH 4.5 -0.4.
COCCCN1C(=O)C2C(C(=O)Nc3cc(C)cc(C)c3)C3C=CC2(O3)C1C(=O)NC1CCCCC1 (configuration not stated) was read as miR-21 reporter -0.4%, Rango release inh -3.5% and Rango-impB inh 2.4%.
`COc1cc(/C=N/NC(=O)c2nc3ccccn3c2C)cc(OC)c1O` gave miR-21 reporter -3.3%, Rango release inh -8.3%, Rango-impB inh -0.4% and GLA inh pH 4.5 2.3.
For CC(C)(C)OC(=O)N1CCC[C@H]1c1nnc(SCC(=O)Nc2ccc(Br)cc2)o1 the results were miR-21 reporter -3.4%, Rango release inh 30.9%, Rango-impB inh 1.8% and GLA inh pH 4.5 -26.2.
Screening Cc1nc2ccc(NS(=O)(=O)c3ccc(F)cc3)cc2s1 returned miR-21 reporter 2.7%, Rango release inh 2.8%, Rango-impB inh -1.1% and GLA inh pH 4.5 -2.3.
For Cc1cc(C(=O)COC(=O)c2ccc3c(c2)NC(=O)CS3)c(C)n1CCc1ccc(Cl)cc1 the results were miR-21 reporter 2.1%, Rango release inh 14.7%, Rango-impB inh -0.6% and GLA inh pH 4.5 -5.4.
For O=C(CCSc1nnc2ccccn12)Nc1ccc(F)cc1 the results were miR-21 reporter -12.3%, Rango release inh 5.6%, Rango-impB inh 0.6% and GLA inh pH 4.5 -3.1.
Screening Nc1cccc(NC(=O)CN2CCOCC2)c1 returned miR-21 reporter -0.4%, Rango release inh -14.4% and Rango-impB inh -6.3%.
O=C(NCCc1ccccc1)c1cc(-c2ccncc2)nc2ccc(S(=O)(=O)N3CCOCC3)cc12 was read as miR-21 reporter -9.5%, Rango release inh -5.8% and Rango-impB inh -0.1%.
CCOC(=O)N1CCN(C(=O)CSc2ccc(-c3cccnc3)nn2)CC1 was read as miR-21 reporter -0.1% and GLA inh pH 4.5 -0.7.
Screening Nc1ccccc1SCc1cn2cccnc2n1 returned miR-21 reporter -27.9%, Rango release inh -2.5%, Rango-impB inh -3.3% and GLA inh pH 4.5 1.7.
For O=C(COc1ccc(S(=O)(=O)N2CCCC2)cc1[N+](=O)[O-])N1CCCC1 the results were Rango release inh 4.9% and Rango-impB inh -1.6%.
`COc1ccc(-c2oc3cccnc3c2/C=C/c2ccc(OC)c(OC)c2)cc1` gave miR-21 reporter -27.8%, Rango release inh -19.1% and Rango-impB inh inconclusive.
For CC(=O)NCCc1nc2cc(NC(=O)c3ccccc3Cl)ccc2n1C the results were miR-21 reporter -53.6%, Rango release inh 8.9% and Rango-impB inh -0.2%.
Screening O=C(NCc1ccc(F)cc1)C1Cc2ccccc2CN1C(=O)c1ccco1 (configuration not stated) returned miR-21 reporter 0.7%, Rango release inh 6.6%, Rango-impB inh 0.0% and GLA inh pH 4.5 -12.9.
Screening O=C(Nc1nc2cc3c(cc2s1)OCCO3)C1CCCCC1 returned Rango release inh 1.7% and Rango-impB inh 5.3%.
O=C(CCN1CCN(c2ccccc2)CC1)NNC(=O)Cc1ccc(Br)cc1 was read as Rango release inh -2.4% and Rango-impB inh -0.7%.
Cc1c(Br)c([N+](=O)[O-])nn1CC(=O)Nc1ccccn1 was read as miR-21 reporter -4.4%, Rango release inh 21.3%, Rango-impB inh -0.1% and GLA inh pH 4.5 -15.7.
`CCOc1ccccc1C(=O)NCCc1cnc[nH]1` gave miR-21 reporter 0.0%, Rango release inh 1.0% and Rango-impB inh -1.5%.
Screening COCCN(C(=S)Nc1ccc(C)cc1)C(C)c1cccnc1 (configuration not stated) returned miR-21 reporter -12.9%, Rango release inh -22.6%, Rango-impB inh 2.4% and GLA inh pH 4.5 -3.3[21.1 µM].
`Cc1ccc(C(=O)Nc2ccc3c(c2)OCO3)cc1` gave miR-21 reporter 6.8%, Rango release inh 2.8%, Rango-impB inh -1.1% and GLA inh pH 4.5 -21.7.
For Cc1ccc(NC(=S)c2ccccc2)cc1 the results were miR-21 reporter -68.0%, Rango release inh 7.8%, Rango-impB inh -7.0% and GLA inh pH 4.5 2.5.
For O=C(Nc1ccccc1N1CCCCC1)c1cccs1 the results were miR-21 reporter -1.7%, Rango release inh 1.5%, Rango-impB inh -2.1% and GLA inh pH 4.5 -11.2.
For CC(C)(C)c1ccc(NC(=O)c2ccc(=O)[nH]n2)cc1 the results were miR-21 reporter -65.7%, Rango release inh -4.4% and Rango-impB inh -0.1%.
`Cc1ccc(C)c(NC(=O)c2cc(=O)c3ccccc3o2)c1` gave miR-21 reporter -42.2%, Rango release inh 0.4%, Rango-impB inh -5.3% and GLA inh pH 4.5 5.1.
`Cc1[nH]n(-c2ccccc2)c(=O)c1N=Nc1cccc(C(=O)O)c1` gave miR-21 reporter -45.5%, Rango release inh 16.7% and Rango-impB inh -0.6%.
For O=c1cc(-c2ccccc2F)oc2ccccc12 the results were miR-21 reporter -67.9%, Rango release inh -8.4%, Rango-impB inh -0.4% and GLA inh pH 4.5 -7.5.
COc1cccc(C2CC(c3ccccc3)Nc3nc(N)nn32)c1 (configuration not stated) was read as miR-21 reporter -3.3%, Rango release inh 8.0%, Rango-impB inh 0.9% and GLA inh pH 4.5 0.5.
Screening CCCCCn1c(SCC(=O)OC)nc2c1c(=O)[nH]c(=O)n2C returned miR-21 reporter -0.5%, Rango release inh -6.8%, Rango-impB inh 3.1% and GLA inh pH 4.5 -6.8.
For CCCCC(c1nnnn1CCOC)N1CCN(Cc2ccccc2)CC1 (configuration not stated) the results were miR-21 reporter -19.3%, Rango release inh 0.2%, Rango-impB inh -1.0% and GLA inh pH 4.5 -6.0.
`O=C(O)c1csc(-c2cccs2)n1` gave miR-21 reporter -1.7%, Rango release inh 1.3%, Rango-impB inh 2.7% and GLA inh pH 4.5 -8.3.
For O=C(O)c1ccc(Cl)c(S(=O)(=O)Nc2ccccc2N2CCOCC2)c1 the results were miR-21 reporter -1.8%, Rango release inh -15.1%, Rango-impB inh -1.9% and GLA inh pH 4.5 5.6.
O=C(COc1ccccc1F)N1c2ccccc2CCc2ccccc21 was read as miR-21 reporter -3.1%, Rango release inh -9.3%, Rango-impB inh 5.7% and GLA inh pH 4.5 -14.3.
Screening O=[N+]([O-])c1ccccc1S(=O)(=O)NCc1ccc(F)cc1 returned miR-21 reporter -3.2%, Rango release inh 2.8%, Rango-impB inh 3.8% and GLA inh pH 4.5 8.8.
For O=C(c1cc2nc(-c3ccco3)cc(C(F)(F)F)n2n1)N1CCN(Cc2ccccc2)CC1 the results were miR-21 reporter 1.0%, Rango release inh inconclusive, Rango-impB inh inconclusive and GLA inh pH 4.5 -2.7.
For CC(NCC(=O)Nc1ccccc1C(=O)NC1CC1)c1ccc(F)cc1F (configuration not stated) the results were Rango release inh 0.1% and Rango-impB inh -1.0%.
For COCc1nnc(NC(=O)CCc2ccccc2)s1 the results were miR-21 reporter -17.1%, Rango release inh -3.2%, Rango-impB inh -2.2% and GLA inh pH 4.5 5.8.
Screening O=C1N(Cc2cccnc2)C[C@@H]2C[C@@H](c3ccccc3C#Cc3ccccc3)N3CCC[C@@]123 returned miR-21 reporter 0.1%, Rango release inh -1.5%, Rango-impB inh 1.0% and GLA inh pH 4.5 1.1.
CCOC(=O)CSc1nc(-c2ccc(OC)cc2)ns1 was read as miR-21 reporter 2.7%, Rango release inh -3.1%, Rango-impB inh -0.1% and GLA inh pH 4.5 -6.9.
For COc1ccccc1N1C(=N)S/C(=C\c2ccc(-c3ccccc3C(=O)O)o2)C1=O the results were miR-21 reporter -12.0%, Rango release inh inconclusive, Rango-impB inh inconclusive and GLA inh pH 4.5 -4.0.
CC(C)C(=O)N(Cc1ccccc1)S(=O)(=O)c1ccc2c(c1)oc(=O)n2C was read as miR-21 reporter -1.0%&2.4%, Rango release inh -0.1% and Rango-impB inh 4.7%.
For CC(C)(C)n1nnnc1C(c1ccc(Cl)cc1)N1CCSCC1 (configuration not stated) the results were miR-21 reporter -3.7%, Rango release inh 1.2%, Rango-impB inh 0.2% and GLA inh pH 4.5 2.3.
Screening Cc1ccc(C#CC[N+](C)(C)CC#Cc2ccccc2)cc1 returned miR-21 reporter 18.9%, Rango release inh 0.8%, Rango-impB inh -0.7% and GLA inh pH 4.5 5.9.
Screening COc1ccccc1-n1nc(C(=O)Nc2ccc3c(c2)OCO3)c2ccccc2c1=O returned miR-21 reporter -7.5%, Rango release inh -8.5%, Rango-impB inh -2.7% and GLA inh pH 4.5 0.1.
Screening CCS(=O)(=O)N1Cc2ccccc2CC1C(=O)Nc1nc2ccccc2[nH]1 (configuration not stated) returned miR-21 reporter -40.2%, Rango release inh -1.1%, Rango-impB inh -1.7% and GLA inh pH 4.5 4.7.
For CCC1(C)C2(C#N)C(N)=NC(OC)(OC)C12C#N (configuration not stated) the results were miR-21 reporter -6.3%, Rango release inh -10.3%, Rango-impB inh 2.4% and GLA inh pH 4.5 3.8.
`Cc1ccc2[nH]c(=O)c(CN(CCCN3CCOCC3)C(=O)Nc3ccc(Cl)cc3)cc2c1` gave miR-21 reporter 1.4%, Rango release inh 7.7%, Rango-impB inh 0.9% and GLA inh pH 4.5 2.8.
`O=C(Nc1ccc2nn(-c3ccccc3)nc2c1)c1ccc(Br)o1` gave miR-21 reporter -14.0%, Rango release inh -4.8%, Rango-impB inh -0.8% and GLA inh pH 4.5 -6.0.

Not a retest: two of the compounds above.
CCOC(=O)CSc1nc(-c2ccc(OC)cc2)ns1 was read as miR-21 reporter 2.7%, Rango release inh -3.1%, Rango-impB inh -0.1% and GLA inh pH 4.5 -6.9.
For COc1ccccc1N1C(=N)S/C(=C\c2ccc(-c3ccccc3C(=O)O)o2)C1=O the results were miR-21 reporter -12.0%, Rango release inh inconclusive, Rango-impB inh inconclusive and GLA inh pH 4.5 -4.0.

Source: PubChem
